KCNQ2 enhance = potentiators of rat KCNQ2 potassium channel; hit rate 0.54% among 310,000; B-score at 10 µM; CHO-K1 KCNQ2, FluxOR thallium flux fluorescence; hits give high values; O88943;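 active = fluorescence ratio B-score at least 3 SD of library B-scores, with initial fluorescence B-score within 3 SD, cut at about 5.3 in these data; same plate scores as AID 2156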;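 also: B-score of peak minus minimum over baseline fluorescence ratio after K+ and Tl+ stimulus; positive B-score means potentiation of KCNQ2 with more thallium influx and brighter signal; only the inactives scoring about 0 or higher are listed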
Target sequence (O88943 whole entry, looked up): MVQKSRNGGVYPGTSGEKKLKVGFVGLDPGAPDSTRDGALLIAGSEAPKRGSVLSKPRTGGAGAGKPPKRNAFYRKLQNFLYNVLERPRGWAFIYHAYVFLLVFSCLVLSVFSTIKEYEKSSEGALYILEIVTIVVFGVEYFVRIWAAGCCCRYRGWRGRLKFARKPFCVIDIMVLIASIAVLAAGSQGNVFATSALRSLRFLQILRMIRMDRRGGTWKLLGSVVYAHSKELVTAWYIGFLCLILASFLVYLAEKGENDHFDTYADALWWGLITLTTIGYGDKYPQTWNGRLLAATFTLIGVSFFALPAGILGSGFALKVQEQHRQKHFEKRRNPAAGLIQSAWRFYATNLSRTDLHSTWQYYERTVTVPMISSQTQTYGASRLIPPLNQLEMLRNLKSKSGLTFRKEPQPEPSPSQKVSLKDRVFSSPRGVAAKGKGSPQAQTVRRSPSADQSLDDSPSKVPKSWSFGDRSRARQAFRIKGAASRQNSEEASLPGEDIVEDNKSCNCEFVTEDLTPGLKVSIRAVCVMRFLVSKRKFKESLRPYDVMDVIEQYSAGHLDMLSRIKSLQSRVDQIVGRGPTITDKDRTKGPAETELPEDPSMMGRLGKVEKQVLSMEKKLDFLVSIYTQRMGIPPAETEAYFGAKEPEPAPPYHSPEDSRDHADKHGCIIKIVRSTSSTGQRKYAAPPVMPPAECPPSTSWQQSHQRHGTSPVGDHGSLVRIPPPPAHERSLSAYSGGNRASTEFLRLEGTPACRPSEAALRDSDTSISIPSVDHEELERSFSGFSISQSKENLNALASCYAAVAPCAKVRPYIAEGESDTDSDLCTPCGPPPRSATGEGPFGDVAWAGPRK
KCNQ2 enhance baseline = second read-out of KCNQ2 enhance, no call of its own (marks repeat the call); B-score; compound at 10 µM; measured here: initial fluorescence intensity artifact check;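 brightness before thallium and not channel activity; 0 = typical well and far values either way flag optical interference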
Starred values were filed as active, the others as inactive; · = not tested or not shown. Not all compounds are listed, so the mix of outcomes need not match the whole.

Under each structure: KCNQ2 enhance, KCNQ2 enhance baseline
CNc1nc(C)c(C#N)c(-c2ccccc2)c1C(C)=O
  0.18, -1.4
Cc1ccc(CN2CCN(Cc3ccc4ncccc4c3)CC2CCO)cc1 (configuration not stated)
  0.79, 1.2
Cn1ncc(C#N)c1/N=C/N1CCCCCC1
  0.39, 1.6
Cc1c(Cl)cccc1NC(=S)NCc1ccc(F)cc1
  1.6, -0.77
CC1(C(=O)OCC(=O)Nc2ccc3ccccc3c2)CC1(Cl)Cl (configuration not stated)
  0.68, 0.52
Cc1nn(-c2ccccc2)c(Cl)c1/C=N/Nc1ccc(Cl)c(C(=O)O)c1
  3.4, 0.18
Cc1nc(NCCC(C)C)c2nnn(Cc3ccccc3)c2n1
  0.06, -1.3
COc1ccc(CCN(Cc2cc3cc(C)ccc3[nH]c2=O)C(C)=O)cc1OC
  0.28, 1.3
Cc1onc(-c2c(F)cccc2Cl)c1C(=O)Nc1c(C)n(C)n(-c2ccccc2)c1=O
  0.37, 0.39
Cc1ccc(-c2cn3cc([N+](=O)[O-])ccc3n2)cc1
  0.52, 1.1
O=C(Nc1ccc2c(c1)OCO2)C1CC(c2ccccc2O)=NO1 (configuration not stated)
  2, -0.5
NC(=O)C1=C[C@@H](c2ccc3c(c2)OCO3)C[C@@H](OCCCCO)O1
  0.96, 0.25
CN(Cc1ccccc1)S(=O)(=O)c1ccc(NS(C)(=O)=O)cc1
  0.48, 0.51
O=c1[nH]c(C2CCCN(S(=O)(=O)c3ccccc3)C2)nc2c1nnn2Cc1ccccc1 (configuration not stated)
  0.01, -0.4
Cc1ccc(CNS(=O)(=O)c2ccc(CN3C(=O)c4cccnc4C3=O)s2)o1
  1.1, 0.15

(further entries)
Under each structure: KCNQ2 enhance, KCNQ2 enhance baseline
COc1cccc2sc3ccc(NCc4ccc5c(c4)OCO5)cc3c(=O)c12
  0.18, 0.69
CC(Sc1cccc(C(F)(F)F)c1)C(=O)NC(N)=O (configuration not stated)
  0.98, -0.08
CCc1nnc(NC(=O)CN2CCN(Cc3cccc(OC)c3)CC2)s1
  0.86, -1.1
O=C(C[n+]1ccc(-c2ccccc2)cc1)Nc1ccc([N+](=O)[O-])cc1
  0.41, 0.32
CCOC(=O)c1nc2ccccc2c(C)c1C
  0.4, 0.58
COc1ccc(NC(=O)COc2cccc3c2CCN(C)C3=O)c(OC)c1
  0.13, -0.77
O=C(NCCc1ccccn1)c1cc(C(=O)C2CCCCC2)c[nH]1
  0.63, 0.41
CC1(C(=O)NC2CCCCC2)CCC(=O)N1Cc1ccc2c(c1)OCO2 (configuration not stated)
  0.25, 0.21
N#C/C(=C\c1cn(Cc2ccc(F)cc2)c2ccccc12)C(=O)NCc1ccco1
  0.57, 0.02
CCOC(=O)CCc1c(C)nc2c(c(C)nn2-c2ccc(C)cc2)c1C
  0.53, 0.07
CCC1(CC)NC(=O)N(CC(=O)N2N=C(c3ccc(Cl)cc3)CC2c2ccco2)C1=O (configuration not stated)
  1.8, -0.73
Cc1ccc(C(=O)N2CCN(C(=O)N3CCOCC3)CC2)cc1
  0.68, -0.68
Fc1cccc(-c2csc(-c3ccno3)n2)c1
  0.45, 0.14
O=S(=O)(c1cccc2nonc12)N1CCN(c2ccccc2F)CC1
  0.8, -0.4
O=C(Nc1ccc(Br)cc1F)c1ccncc1
  1.1, -0.51

Going on with the list.
Under each structure: KCNQ2 enhance, KCNQ2 enhance baseline
Cc1ccc(Cl)c(OCC(=O)Nc2ccc(S(=O)(=O)NC3=NCCCCC3)cc2)c1
  0.74, -1.5
CC(C)CCN(C(=O)Cc1ccc(Cl)c(Cl)c1)c1c(N)n(Cc2ccccc2)c(=O)[nH]c1=O
  1.7, -0.31
Cc1cccc(-c2nnc(SCC(=O)c3ccc(O)cc3O)n2C)c1
  0.11, -0.01
CC(NC(=O)c1cccc(N(C)C)c1)c1ccc(-n2ccnc2)cc1 (configuration not stated)
  0.86, 0.87
O=[N+]([O-])c1ccc(S(=O)(=O)N/N=C/c2ccsc2)cc1
  0.79, 1.2
Cc1noc2ncnc(Oc3ccc(F)cc3)c12
  0.94, -0.87
O=C(NCCc1ccncc1)Nc1ccc(Cl)c(Cl)c1
  1.1, -1.6
O=C(N/N=C/C(Br)=C/c1ccccc1)c1ccncc1
  1.4, -1.8
CC(=O)Nc1ccc(C2=NNC(=Nc3ccc(S(=O)(=O)N4CCOCC4)cc3)SC2)cc1
  1.7, -1.9
O=C(CSc1nnc(C2CCCCC2)n1-c1ccccc1)NCc1ccco1
  -5.6, ·
COc1ccc2cc(S(=O)(=O)NC3CC(C)(C)NC(C)(C)C3)ccc2c1
  1, 0.51
Cn1c(=O)[nH]c(=O)c2c1nc(Br)n2CCOc1ccccc1
  0.22, 0.11
COC(=O)c1c(NC(=O)COC(=O)c2ccc(C)s2)sc2c1CCCCC2
  0.22, -0.69
Cn1ccc(-c2ccccc2)n1
  0.64, 0.33
CCOc1ccc(CCNC(=O)CN2C(=O)CCSc3ccccc32)cc1
  0.04, -1

Next part
Under each structure: KCNQ2 enhance, KCNQ2 enhance baseline
Cc1ccc(NC(=O)C2CCN(C(=O)[C@@H]3Cc4ccccc4CN3)CC2)cc1
  0.01, -1.8
Cc1ccc(NC(=O)CSc2n[nH]c(-c3cccnc3)n2)cc1Cl
  1.5, 0.94
Cc1nc2c3ccccc3[nH]c(=O)n2n1
  0.38, 0.47
COc1ccc(N2CCN(C(=S)Nc3cc(C)ccc3C)CC2)cc1
  0.61, -1
Cc1cc(Cl)ccc1OCCCC(=O)N1CCN(S(=O)(=O)c2ccccc2)CC1
  0.67, 0.14
CN(C(=O)CSc1nc(-c2ccccc2)cs1)C1CCS(=O)(=O)C1 (configuration not stated)
  1.1, -0.13
CCC(C)c1ccccc1NC(=O)COC(=O)C1=COCCO1 (configuration not stated)
  1.5, 0.71
CCc1cc2c(-c3ccccc3)cc(=O)oc2cc1OC(=O)c1cccs1
  0.12, -0.76
CCOC(=O)c1nn(-c2cccc(Cl)c2)c2nc(Nc3ccccc3)cc(=O)n12
  0.39, 1.3
O=C(Cc1ccc(S(=O)(=O)N2CCOCC2)s1)Nc1ccc(N2CCOCC2)cc1
  0.06, -2.8
CC[C@@]12C(=O)N(c3cccc(F)c3)C(=O)N1[C@H](c1ccc(OC)cc1)[C@@H]1C(=O)N(C(C)(C)C)C(=O)[C@@H]12
  0.67, 0.98
C/C(=C\c1ccccc1)CN1CCC(C(=O)N2CCC(C)CC2)CC1
  0.53, 1
CCN(CC(=O)Nc1c(F)cccc1F)C(=O)C1CCN(S(=O)(=O)c2ccc(C)cc2C)CC1
  0.04, 0.62
CCOC(=O)CN(C(=O)Cn1nnc2ccccc21)C(C(=O)NCCOC)c1ccccc1C (configuration not stated)
  1, -3.4
COc1cccc(CC(=O)NNC(=O)c2c(-c3ccccc3)noc2C)c1
  0.02, 0.14

(next part)
Under each structure: KCNQ2 enhance, KCNQ2 enhance baseline
COc1cc([N+](=O)[O-])ccc1Nc1nc(C)cc(C)n1
  0.56, 0.72
CCC(=O)Nc1ccc2nc(SCC(=O)N3CCOCC3)sc2c1
  0.47, -1.2
Cc1cc(C)n(-c2ccc(NC(=O)C3CCCCN3C(=O)c3cc(C)oc3C)cc2)n1 (configuration not stated)
  0.07, 0.46
CCOC(=O)N1CCN(C(=O)C(=O)NNC(=O)COc2ccc(Cl)cc2)CC1
  0.78, 0.45
Cc1sc2nc(CSCC(=O)NC(C)(C)C)[nH]c(=O)c2c1C
  0.15, -2.5
O=C(O)Cn1cc(/C=C2/SC(=O)N(CC(=O)N3CCCCCC3)C2=O)c2ccccc21
  1, 0.77
COc1ccc(NC(=O)c2ccc3c(c2)n(C)c(=O)n3C)cc1
  0.14, 2.4
CCOC(=O)c1c(NC(=O)c2ccc(S(=O)(=O)N3CCOCC3)cc2)sc2c1CCN(C(C)C)C2
  1.6, 1.1
Cc1sc2ncnc(N3CCN(Cc4ccccc4)CC3)c2c1-c1ccc(F)cc1
  0.14, 1.3
CCN(CC)CCNC(=O)c1ccc2c(c1)ncn2C1CCCCC1
  1.6, -0.39
CC(=O)Nc1ccc(C=C(C(C)=O)C(C)=O)cc1
  0.39, 0.47
Nc1no[n+]([O-])c1-c1ccccc1
  1.2, 0.94
O=C(Cc1ccc2c(c1)OCCO2)N1CCN(S(=O)(=O)c2ccccc2C(F)(F)F)CC1
  0.35, -0.2
Cc1ccc2nsnc2c1S(=O)(=O)N1CCCC1C(=O)O (configuration not stated)
  0.01, -0.81
C=CCn1c(N)c(C(=O)N2CCN(C)CC2)sc1=S
  0.08, -0.16

Next section
Under each structure: KCNQ2 enhance, KCNQ2 enhance baseline
O=C(CNC(=O)Cc1ccccc1)NCc1cccc(C(F)(F)F)c1
  0.34, 0.61
CCNc1nc(NCC)n2c(SCC(=O)Nc3ccccc3[N+](=O)[O-])nnc2n1
  1.1, 0.03
C/C(=N\NC(=O)c1nnn(-c2nonc2N)c1-c1ccc2c(c1)OCO2)c1ccc(F)cc1
  1.3, 0.74
O=C(COC(=O)/C=C/c1ccccc1)NCc1ccc(Cl)cc1
  0.01, 1.4
O=C(Nc1nnc(-c2ccccc2Cl)o1)c1cccnc1
  0.13, -0.61
O=C(CSc1nnnn1Cc1ccccc1)Nc1cccc(F)c1
  0.9, -0.33
Cc1sc2c(c1C)c(=O)n(-c1ccccc1)c1nncn21
  0.26, 0.39
O=C(c1ccco1)N1CCN(C(=O)C2(S(=O)(=O)c3ccc(Cl)cc3)CC2)CC1
  0.77, 1.4
OCCC1CN(Cc2ccc3nsnc3c2)CCN1CCc1ccccc1 (configuration not stated)
  0.09, 0.74
CCN(CC)C(=O)/C(=C\c1cccc([N+](=O)[O-])c1)NC(=O)c1ccco1
  0.73, 0.01
CCOc1[nH]n(-c2ccccc2)c(=O)c1C=NCc1ccncc1
  1.1, 0.35
c1ccc(Cn2nnc3c(N4CCCC4)ncnc32)cc1
  0.01, 1.2
O=S(=O)(NC1CCCCC1)c1ccc(Cl)s1
  1.7, -0.22
CCCC(=O)Nc1nc2nc(-c3ccccc3)cc(=O)n2[nH]1
  0.6, 0.45
O=C(CCS(=O)(=O)c1ccccc1)Nc1nnc(C(F)(F)F)s1
  0.34, 2.1

New compounds follow:
Under each structure: KCNQ2 enhance, KCNQ2 enhance baseline
COC(=O)C1=C(C)NC(=O)NC1c1ccco1 (configuration not stated)
  0.71, -0.03
Cc1c(NC(=S)NC(=O)c2cc3ccccc3o2)c(=O)n(-c2ccccc2)n1C
  0.13, 0.23
COC(=O)Cc1c(O)ccn(Cc2ccc(F)cc2)c1=O
  0.22, 0.03
Cc1ccc2[nH]c(=O)c(CN(C(=O)c3cccs3)c3ccccc3)cc2c1
  0.31, 0.21
CN(C)c1ccc(P(=O)(CC(=O)N/N=C/c2ccc(C#N)cc2)OCCCl)cc1 (configuration not stated)
  1.9, -0.03
O=C(COc1ccc(F)cc1Br)N1CCc2ccccc21
  1.8, -1.1
Cn1cc(S(=O)(=O)Nc2ccc(Cl)cc2Cl)c(=O)n(C)c1=O
  0.01, -1.1
CN1C/C(=N\S(=O)(=O)c2ccccc2)N(C)C1=O
  0.11, -1.6
CCCn1c(SCC(=O)Nc2ccc(Cl)cc2)n[nH]c1=O
  0.05, -0.8
O=S(=O)(Cc1ccccc1)N1CCC(N2CCN(c3ccccc3)CC2)CC1
  0.07, 0.4
O=C(NCCCN1CCOCC1)c1cc(-c2ccc(O)cc2)on1
  1.2, -0.78
COc1ccc(C(=O)Nc2ccc3[nH]ccc3c2)cc1
  1.7, 0.68
CCOC(=O)c1sc(-c2ccc(F)cc2)cc1N
  2.8, -0.28
Cc1csc(OCc2ccc(C#N)cc2)n1
  2.3, 0.02
Cc1ccc(S(=O)(=O)N2CCCCC2)cc1C(=O)NCCc1ccccc1
  0.14, 0.45

Additional results follow:
Under each structure: KCNQ2 enhance, KCNQ2 enhance baseline
O=C(NCc1cccs1)c1cc(-c2ccccc2)nc2ccccc12
  0.3, 0.31
COc1ccc(-c2nnc3ccc(SCC(=O)Nc4nccs4)nn23)cc1OC
  0.26, -0.07
COc1cc2c(cc1OC)C(c1ccc(SC)cc1)CC(=O)N2 (configuration not stated)
  0.66, 0.22
COc1ccc(CCNC(=O)C2CCCN(S(C)(=O)=O)C2)cc1 (configuration not stated)
  0.48, -0.34
O=C1C(Oc2ccccc2)C(c2cccs2)N1Cc1ccc2c(c1)OCO2 (configuration not stated)
  0.4, -0.65
CCN(CC)CCCN(Cc1cc2cc3c(cc2[nH]c1=O)OCO3)C(=S)Nc1ccccc1
  1.9, -0.92
COc1ccc(C(=O)N2CCCC(c3nc(-c4ccc(OC)c(OC)c4)no3)C2)c(OC)c1 (configuration not stated)
  0.7, 0.53
COc1ccc(NC(=O)CSCC(=O)N2CCCc3ccccc32)cc1
  0.85, -1.2
CCCC(=O)N1CCN(c2ccc(NC(=O)c3ccccc3)cc2)CC1
  1.2, -0.11
Cc1ccc2ccc(S(=O)(=O)n3nc(C)cc3C)cc2c1
  0.86, 0.86
N#C/C(=C\c1ccc(Cl)c([N+](=O)[O-])c1)c1ccccn1
  0.05, -0.4
COc1ccc(CNC(=O)c2nn(-c3ccccc3)cc2OC)cc1
  0.92, -0.08
COC(=O)Cc1ccc(NC(=S)NCCCO)cc1
  0.33, -0.52
COc1ccc(/C=C(\C#N)C(=O)Nc2cc(S(=O)(=O)N3CCOCC3)ccc2N2CCCC2)cc1
  0.78, 1
